Bioassay records (PubChem BioAssay)
MT1-MMP act inh = blocks activation of human MT1-MMP; P50281; HT1080 RFP-PRO-GFP cells, GFP/RFP ratio fluorescence, overnight; percent of plate control window, DMSO zero; GFP/RFP ratio change, % at 20 µM; actives 0.061% (n = 360,000); AID 651647;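 active = GFP/RFP ratio change of at least 30% with cell ATP level not reduced by more than half and red fluorescence within 50% of control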; note: strong numbers were not always called active
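Assay system: HT1080 RFP-PRO-GFP cells. Benchmarks: DMSO vehicle wells and RFP-L50D-GFP reporter cell wells. Times: overnight cell settling, then overnight compound exposure, 37 °C, 5% CO2. Compound: 20 µM single dose, 1% DMSO. Read-out basis: GFP/RFP fluorescence ratio.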
UUG fidelity = alters start codon recognition fidelity in yeast. activity score, % at 18.7 µM. actives 0.13% (n = 350,000). S. cerevisiae UUG-firefly luciferase reporter, luminescence/redox ratio. AID 602363;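 active = replicate mean at a twofold rise or more, about +100% in these data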;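 note: firefly luciferase made from a UUG start codon reports start codon fidelity; reporter light over untreated wells divided by growth signal over untreated wells; some hits fall short of that in this replicate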
MT1-MMP act inh RFP = also measured in MT1-MMP act inh; calls as there; RFP signal change, %; measured here: RFP expression control read;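 0 = vehicle wells; hits needed this value within 50% of zero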
* = called active by the depositor; & = joins results of further samples.

SMILES	MT1-MMP act inh	MT1-MMP act inh RFP	UUG fidelity
CNS(=O)(=O)c1ccc(C(=O)NCC(=O)NCCc2ccc3c(c2)OCCO3)cc1	1.6	1.5	-15.1
O=C(NCC1CCCO1)c1cn(Cc2ccccc2)nc1-c1ccccc1 (stereo not given)	-2.2	3.2	-5.1
O=C(COc1cccc(F)c1)Nc1nc(-c2ccccn2)cs1	1.9	3.1	-46.2
O=C(Cn1cnc([N+](=O)[O-])c1)Nc1ccc(Cl)cc1Cl	-1.8	-0.3	-39.7
C[C@]12c3[nH]c4cc(-c5ccco5)ccc4c3CCN1C(=O)[C@@H](CC(=O)NCCC1=CCCCC1)C[C@@H]2C(=O)N1CCOCC1	1.3	-3.6	-2.5
CN(C)C(CNC(=O)CN1C(=O)NC2(CCCC2)C1=O)c1ccccc1 (stereo not given)	0.1	3.1	-19.8
CC1CCC(NC(=O)c2cc3ccccc3cc2O)CC1 (stereo not given)	-2.6	-5.8	-15.8
COc1ccc2nc3ccccc3[n+]([O-])c2c1	-4.7	0.7	-10.5
CCCCn1c(N)c(N(CC(C)C)C(=O)c2ccc(OC)c(S(=O)(=O)N3CCOCC3)c2)c(=O)[nH]c1=O	-2.3	0.3	-11.6
COc1ccc2c(-c3ccc(OCCN4CCCCC4)cc3)c(-c3ccccc3OC)sc2c1	-2.3	-0.8	-14.1
COc1ccccc1Cc1c(-c2cccc(Cl)c2)nc2ccc(Cl)cn12	-1.9	1.1	-20.8
CCCCC(c1nc2ccccc2[nH]1)n1c(-c2ccccc2)nc2ccccc21 (stereo not given)	-4.0	-4.1	-18.4
CCCOc1ccc(F)cc1-c1cc(C(=O)Nc2ccc(OC)nc2)[nH]n1	-1.1	-4.1	-6.6
Cc1ccc(Cl)cc1NC(=O)COC(=O)CC1CCCCC1	0.7	0.9	-0.9
CCCCn1c(N)c(N(CC(C)C)C(=O)c2cc(Br)c(Br)s2)c(=O)[nH]c1=O	-6.5	-1.4	2.4
COc1cccc(CC(=O)OCC(=O)c2cc(OC)ccc2OC)c1	2.8	0.8	0.9
COc1ccc(CNC(=O)COC(=O)C2=Cc3ccccc3OC2)cc1	1.9	6.0	-3.7
CC1CCCC(C)N1C(=O)CN1C(=O)NC2(CCOc3ccccc32)C1=O (stereo not given)	1.9	1.1	8.3
COc1ncnc2c1ncn2CCCN[C@H](C)c1cccc2ccccc12	2.4	7.8	-12.6
COc1c2ccoc2cc2oc(=O)ccc12	-2.0	2.8	-21.0
Cc1ccc(NC(=O)COC(=O)C2CC2)cc1Cl	0.9	1.8	0.7
CSc1cccc(Nc2ccc(S(=O)(=O)N3CCOCC3)cc2[N+](=O)[O-])c1	1.8	-2.4	-12.9
O=C(C1CC(=O)N(c2ccc3c(c2)OCCO3)C1)N1CCN(Cc2ccccc2)CC1 (stereo not given)	4.1	2.6	-1.2
CNC[C@H]1OCc2ccccc2-c2ccccc2C(=O)N([C@H](C)CO)C[C@H]1C	0.7	4.7	-7.3
Cc1ccc(NC(=O)CN(C)C(=O)COC(=O)c2oc3ccccc3c2C)cc1	-1.1	-1.2	-2.7

Additional structures:
SMILES	MT1-MMP act inh	MT1-MMP act inh RFP	UUG fidelity
COc1ccc(N(CC(=O)NCc2ccc3c(c2)OCO3)S(=O)(=O)c2ccc(O)c(C(=O)O)c2)cc1	0.6	1.8	2.7
Cc1ccc(S(=O)(=O)N2CCN(C(=O)COC(=O)Cc3c(F)cccc3Cl)CC2)c(C)c1	-1.9	2.0	-10.5
N#CC1(c2cccc(Br)c2)C(=O)Nc2ccccc21 (stereo not given)	-0.7	2.5	-14.6
OCCO	4.8	5.4	-13.8
CCc1noc(C)c1C(=O)OC(C)C(=O)Nc1ccc(Cl)cn1 (stereo not given)	-1.9	-1.4	-29.5
COc1ccc(C(=O)OC(C)C(=O)NC2CCCc3ccccc32)cc1OC (stereo not given)	-1.3	-2.4	-28.8
CCOC(=O)N1CCN(CC(=O)Nc2ccccc2C(=O)Nc2ccccc2)CC1	-0.7	0.6	-8.4
Nc1ccn([C@@H]2O[C@H](CNCc3ccc(OCC(=O)Nc4nccs4)cc3)[C@@H](O)[C@H]2O)c(=O)n1	0.7	-0.8	-7.6
Cc1ccc(C(=O)OCC(=O)NCc2ccc(Cl)cc2Cl)o1	-0.2	2.6	2.1
N#CC1(NC(=O)CN2C(=O)NC3(CCCCCC3)C2=O)CCCCC1	-1.4	2.1	-17.0
COc1ccc(CN(C)CC(=O)NC(=O)NC2CCCCC2)cc1	0.4	-4.7	-9.1
Cc1ccc(S(=O)(=O)N2CCN(C(=O)Cc3ccccc3)CC2)cc1C	1.7	-3.1	2.1
CN(CC(=O)Nc1ccc(Cl)c(C(F)(F)F)c1)C(=O)c1cc(=O)c2ccccc2o1	-0.4	0.8	-16.9
COc1ccc(OCCCC(=O)OCC(=O)Nc2ncc(Cl)cc2Cl)cc1	-3.9	5.6	-17.8
Cc1nc(Cc2nnc(SCC(=O)N3CCN(c4ccc(O)cc4)CC3)o2)cs1	-0.6	0.4	-18.4
COc1ccc(C(=O)OCc2cc(=O)n3c(C)csc3n2)cc1F	-7.5	-2.6	-0.9
COC(=O)[C@H]1C[C@@]2(O)CN(S(=O)(=O)c3ccc(C)cc3)C[C@@]2(OC(=O)NCC2CCCCC2)C[C@H]1C(=O)OC	1.0	0.6	-3.2
CC1(c2cccc(Br)c2)NC(=O)N(CC(=O)NC2CCCCC2)C1=O (stereo not given)	-0.3	1.0	2.4
NC(=O)c1ccsc1NC(=O)COC(=O)c1ccc([N+](=O)[O-])o1	-2.9	-1.3	-17.6
C/C=C(\C)C(=O)OC1[C@H](OC(C)=O)C2(CO)C(CC1(C)C)C1=CCC3C4(C)CCC(O[C@@H]5O[C@H](C(=O)O)[C@@H](O[C@@H]6O[C@H](CO)[C@@H](O)[C@H](O)[C@H]6O)[C@H](O)[C@H]5O[C@H]5O[C@H](CO)[C@@H](O)[C@H](O)[C@H]5O)[C@](C)(CO)C4CCC3(C)[C@]1(C)C[C@H]2O (stereo not given in full)	-4.6	-5.1	15.8
CCN1C[C@@H]2[C@@H]3C(=O)N(Cc4ccccc4)C(=O)[C@@H]3[C@](CC)(C1=O)N2C(=O)c1ccc(Cl)c(Cl)c1	-0.6	1.7	-3.7
COc1cccc(NC(=O)CN(C)C(=O)c2ccc(NS(=O)(=O)c3ccc(F)cc3)cc2)c1	0.0	1.2	-6.4
Cc1ccc(NC(=O)C2(C)CCCN2C)cc1C (stereo not given)	0.7	-1.9	-17.4
Cc1cc(Br)cn2c(Cc3ccsc3)c(C3CCCCC3)nc12	-15.4	4.8	6.3
Cc1cc(=O)[nH]c(N2CCCCC2)n1	-4.4	2.0	-24.6

Of the compounds above, these contain an aryl thioether with sulfur outside any ring.
SMILES	MT1-MMP act inh	MT1-MMP act inh RFP	UUG fidelity
CSc1cccc(Nc2ccc(S(=O)(=O)N3CCOCC3)cc2[N+](=O)[O-])c1	1.8	-2.4	-12.9
Cc1nc(Cc2nnc(SCC(=O)N3CCN(c4ccc(O)cc4)CC3)o2)cs1	-0.6	0.4	-18.4

Continuation.
SMILES	MT1-MMP act inh	MT1-MMP act inh RFP	UUG fidelity
Cc1ccc(CN(C)C(=O)CN2C(=O)NC3(CCCc4ccccc43)C2=O)c(C)c1 (stereo not given)	5.7	-3.2	-5.7
CC(=O)c1cccc(-c2csc(N3CCC(C(N)=O)CC3)n2)c1	4.6	3.6	-10.9
CC(=O)Nc1cc2c(cc1[N+](=O)[O-])-c1ccccc1C2O (stereo not given)	9.2	2.3	-14.1
COC(=O)C1CCN(C(=O)COC(=O)c2cc(-c3ccccc3)nc3ccc(OC)cc23)CC1	29.0	-8.0	-10.6
Cc1noc(C)c1NC(=O)Nc1ccc2c(c1)C(=O)N([C@@H](C)CO)C[C@@H](C)[C@H](CN(C)C(=O)Nc1cccc3ccccc13)OCCCC[C@H](C)O2	3.8	2.9	13.5
CCOc1ccc(C(=O)CC(C(=O)O)N2CCCCC2)cc1 (stereo not given)	-2.3	0.9	-27.0
OC(c1cccnc1)c1nc(/C=C/c2ccc(C(F)(F)F)cc2)cs1 (stereo not given)	4.5	-17.9	-6.9
NS(=O)(=O)c1ccc(CCNC(=O)/C=C/c2ccc(S(=O)(=O)N3CCOCC3)cc2)cc1	-1.8	1.9	26.2
CC(O)c1cc2c(s1)c1cnn(Cc3ccccc3F)c(=O)c1n2C (stereo not given)	4.7	-2.3	-24.9
Clc1cccc(Cc2c(-c3cccc(Br)c3)nc3ccc(Cl)cn23)c1	-6.5	-5.3	-39.1
O=C(OCC(=O)N1CCCCCC1)c1cnc(Cl)c(Cl)c1	-1.5	-0.2	8.9
COc1ccc(NC(=O)N(C)[C@H]2C[C@H]3c4[nH]c5ccc(-c6cccc(C)c6)cc5c4CCN3C[C@H]2[C@H](C)O)cc1	-4.4	-0.8	-0.1
COc1ccc2c(c1C)CCC(C)(C#N)C2=O (stereo not given)	2.8	2.9	-12.1
Cc1csc(NC(=O)c2c(-c3c(F)cccc3Cl)noc2C)n1	-3.9	-1.6	-8.1
COc1ccc(C(=O)N2CCC(C(N)=O)CC2)cc1S(=O)(=O)N1CCCC1	-2.1	3.9	-6.0
O=C(NCC1CCCO1)c1cccc2c1C(=O)c1ccc(N3CCC(Cc4ccccc4)CC3)cc1S2(=O)=O (stereo not given)	-184.4	-22.5	-0.1
COc1ccccc1S(=O)(=O)Nc1ccc(S(=O)(=O)Nc2nccs2)cc1	-3.4	2.1	-21.8
O=C(CN1CCN(C(=O)c2ccccc2Cl)CC1)Nc1cccc(S(=O)(=O)N2CCCC2)c1	-2.4	-8.4	17.6
O=C1NC(=O)C2(CCCCCCC2)N1	3.5	-0.1	-16.3
Cc1ccc(S(=O)(=O)CCC(=O)OCC(=O)NNC(=O)c2ccc([N+](=O)[O-])cc2)cc1	4.9	1.3	-21.9
COCCN(C(=O)c1ccc2c(c1)C(=O)N(c1ccccc1Cl)C2=O)c1c(N)n(CC(C)C)c(=O)[nH]c1=O	-1.5	1.0	-17.3
CC(=NNC(=O)c1ccncc1)c1cc(Cl)ccc1Cl	4.3	2.4	-17.7
CCN(CC(=O)Nc1c(F)cccc1F)C(=O)C1CC1	-1.6	0.9	-5.3
O=C(CSc1nc2[nH]c(=O)cc(O)c2s1)Nc1nccs1	0.8	2.9	-10.6
Cc1ccc(NS(=O)(=O)c2ccc(C)c(C(=O)NCC(c3ccccc3)N(C)C)c2)cc1 (stereo not given)	1.8	-1.5	-5.2

Whole records from above. Screens in order: MT1-MMP act inh | MT1-MMP act inh RFP | UUG fidelity
Profile of `COc1ccc(NC(=O)N(C)[C@H]2C[C@H]3c4[nH]c5ccc(-c6cccc(C)c6)cc5c4CCN3C[C@H]2[C@H](C)O)cc1` → -4.4 | -0.8 | -0.1
Profile of `OC(c1cccnc1)c1nc(/C=C/c2ccc(C(F)(F)F)cc2)cs1` (stereo not given) → 4.5 | -17.9 | -6.9

The main list resumes, starting 2 compounds before the break.
SMILES	MT1-MMP act inh	MT1-MMP act inh RFP	UUG fidelity
O=C(CSc1nc2[nH]c(=O)cc(O)c2s1)Nc1nccs1	0.8	2.9	-10.6
Cc1ccc(NS(=O)(=O)c2ccc(C)c(C(=O)NCC(c3ccccc3)N(C)C)c2)cc1 (stereo not given)	1.8	-1.5	-5.2
CCN1C(=O)CC(C(C)C)N(C2CCCC2)c2nc(Nc3ccc(C(=O)NC4CCN(C)CC4)cc3OC)ncc21 (stereo not given)	6.0	1.2	-1.0
C[C@H](CO)N1C[C@H](C)[C@@H](CN(C)C(=O)Nc2ccccc2)Oc2ccc(NC(=O)c3ccncc3)cc2C1=O	-0.4	6.1	1.4&-8.0
O=C(NC1CCN(Cc2ccccc2)CC1)c1cccc(S(=O)(=O)Nc2ccc(F)cc2)c1	14.9	-18.6	-12.1
CCCCN1C(=O)C(CC(=O)NCc2ccco2)CC(C(=O)N(C(C)C)C(C)C)=C1C (stereo not given)	2.2	2.7	2.2
O=C(CSc1nncs1)Nc1ccc(N2CCCCC2)cc1	4.9	-8.7	-19.8
COC(=O)C1C2CC3c4[nH]c5cc(OC)ccc5c4CCN3CC2CC(O)C1OC (stereo not given)	-3.7	6.4	0.3
O=c1n(Cc2ccccc2)c(O)c2n1Cc1ccccc1N=C2c1ccccc1	1.0	2.1	-4.3
CCOc1ccc(S(=O)(=O)N2CCCCC2)cc1NC(=O)Cc1ccccc1	3.1	-8.1	12.2
CCNC1(C(N)=O)CCN(Cc2ccccc2)CC1	-2.3	1.0	-11.8
OC1CCC2CN3CCc4c([nH]c5ccccc45)C3CC2C1 (stereo not given)	-19.0	1.1	61.7
O=C1C(c2ccccc2)=NCCN1C(c1ccc(F)cc1)c1nc2ccccc2[nH]1 (stereo not given)	-1.7	1.9	-10.8
O=C(NNC(=O)c1cccc2ccccc12)c1cccc(Cl)c1	8.6	-2.6	-13.2

Two compounds drawn at random from the list so far:
SMILES	MT1-MMP act inh	MT1-MMP act inh RFP	UUG fidelity
Nc1ccn([C@@H]2O[C@H](CNCc3ccc(OCC(=O)Nc4nccs4)cc3)[C@@H](O)[C@H]2O)c(=O)n1	0.7	-0.8	-7.6
COCCN(C(=O)c1ccc2c(c1)C(=O)N(c1ccccc1Cl)C2=O)c1c(N)n(CC(C)C)c(=O)[nH]c1=O	-1.5	1.0	-17.3

An excerpt, so the mix of outcomes need not match the whole.
